Screening results as filed in PubChem BioAssay.
Rango complex inh: qHTS Assay for Inhibitors of Rango (Ran-regulated importin-beta cargo) - Importin beta complex formation; Importin subunit beta-1 (Homo sapiens), Q14974; Rango CFP/YFP FRET sensor + importin beta, 45 min; Potency, µM (series often up to 92.2 µM), for the others: at the highest dose inhibition of complex formation; 340,000 compounds, 0.031% hits; AID 540263, 2011; active = rising FRET ratio curve, often small or poorly fitted; inconclusive = mostly compound fluorescence or quenching in the first reads; inactive = flat curves in all reads;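 further: potency means the concentration at half of the fitted maximal effect; 0% = DMSO wells and 100% = buffer wells lacking importin beta; nearly all actives have a fitted effect of over 15% in size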
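FRET biosensor (snurportin 1 IBB flanked by EYFP and cerulean), 50 nM, with compound 5 min, then 0.125 microM importin beta in PBS, 1 mM DTT, 0.02% Tween-20, 0.1% BSA. CFP/YFP ratio read after 45 min at room temperature; pre-read flags interference.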
GLA inh pH 4.5: qHTS Assay for Inhibitors of Human alpha-Galactosidase at pH 4.5. Alpha-galactosidase A (Homo sapiens), P06280. purified enzyme, 4-MU-alpha-Gal fluorescence, pH 4.5. activity change, negative = inhibition, % at 105 µM. 230,000 tested, under 10 active. AID 1467, 2008; inconclusive = small, poorly fitted or top-dose-only inhibition, or a rising curve; inactive = flat fitted curve, though single readings scatter; no compound was filed as active;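 further: 0% = full activity with enzyme and -100% = basal without enzyme; dose as in the result columns while the protocol names 77 µM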
Target sequence (P06280 whole entry, looked up): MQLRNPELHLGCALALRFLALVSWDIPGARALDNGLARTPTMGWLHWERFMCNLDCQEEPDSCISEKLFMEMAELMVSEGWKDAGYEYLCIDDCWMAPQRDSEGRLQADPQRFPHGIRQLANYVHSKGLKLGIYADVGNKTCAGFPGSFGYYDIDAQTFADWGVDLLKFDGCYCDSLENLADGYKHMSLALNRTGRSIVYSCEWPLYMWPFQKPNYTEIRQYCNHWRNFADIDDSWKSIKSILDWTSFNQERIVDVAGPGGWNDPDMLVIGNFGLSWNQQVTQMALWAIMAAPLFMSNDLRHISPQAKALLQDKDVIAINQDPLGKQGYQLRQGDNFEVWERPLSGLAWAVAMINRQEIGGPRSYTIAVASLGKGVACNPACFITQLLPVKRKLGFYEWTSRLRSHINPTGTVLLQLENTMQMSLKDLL
miR-21 FLuc: qHTS Assay for Modulators of miRNAs and/orActivators of miR-21; AID 2288, 2010; 340,000 tested, under 10 active; HeLa miR-21 FLuc reporter, luciferase, 48 h; Potency, µM (highest dose often 38.3 µM), inactives show at the top dose reporter change, positive = more light; active = well fitted rising curve with a large enough effect; inconclusive = small, poorly fitted or top-dose-only effect; inactive = no such curve, though single readings can be large or run the other way;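 further: % of control where 0% means no effect; miR-21 action dims this reporter so a rising signal means less miR-21 action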
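Using DMEM plus 10% FBS, HeLa miR-21-FLuc cells are incubated with test compounds (final up to about 40uM) for 48 hours; firefly luciferase signal is then imaged following reagent-mediated lysis.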
Rango dissoc inh: qHTS Assay for Inhibitors of RanGTP induced Rango (Ran-regulated importin-beta cargo) - Importin beta complex dissociation; Potency, µM (titrated, usually from 46.1 µM), for inactives: at the top dose activity change, negative = inhibition; AID 540253, 2011; Biochemical FRET Rango-importin beta, RanGTP-induced dissociation; 340,000 compounds, 0.071% hits; active means falling FRET ratio curve, often poorly fitted, with flat reads before Ran was added; inconclusive means other falling curves, or compound fluorescence or quenching; inactive means flat or rising ratio curve;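 further: potency means the concentration at half of the fitted maximal effect; % of control where 0% means no effect; nearly all actives have a fitted effect of over 45% in size; -100% = wells without RanGTP and RCC1; the record marks most hits as doubtful in a second field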
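FRET read at 45 min, room temperature: inhibitors block the CFP/YFP signal rise when RanGTP (0.6 uM Ran, 2 mM GTP, 0.2 uM RCC1) frees Rango (0.1 uM) from importin beta (0.25 uM). Pre-read after 5 min compound exposure flags interference.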
The depositor's hits bear a star; ? = inconclusive; / = not tested or not shown; & = joins results of further samples. Some of the compounds tested (hit frequency here may not be typical).

Fields – Rango complex inh, GLA inh pH 4.5, miR-21 FLuc, Rango dissoc inh
Cc1c(C(=O)O)[nH]c2ccc([N+](=O)[O-])cc12
  -1.2%, -1, 3%, 18%
Cc1ccc(S(=O)(=O)NCC(=O)N2CCOCCOCCOCCOCC2)cc1
  -1.1%, /, 1%, 19%
CCCCCCn1c(CN2CCCCC2C)nc2c1c(=O)n(C)c(=O)n2C (stereo not given)
  -1.0%, -15, -1%, -8%
O=Cc1ccc(OCc2cn(CC(=O)c3ccc(O)cc3)nn2)cc1
  4.9%, /, /, -17%
CN(Cc1ccccc1)c1ncc(C=O)s1
  0.2%, -2, -1%, 5%
N#Cc1cccc(NC(=O)CNC(=O)Cc2ccccc2)c1
  5.1%, /, -4%, -14%
O=C(NCCCO)c1cc2c([nH]c3ccccc32)c(-c2ccccc2)n1
  ?, /, 14%, ?
Cc1ccccc1Cn1c(=O)[nH]c2ccccc21
  -5.1%, 8, -2%, 8%
CCOc1ccc(S(=O)(=O)Nc2cccc(Cl)c2)cc1
  14%, /, /, -9%
Cc1cc(NC(=O)CCC(=O)N(Cc2cccs2)C(C(=O)NC2CCCC2)c2cccnc2)no1 (stereo not given)
  ?, -3, 0%, 10%
CC(C)OC(=O)C1C2C=CC3(CN(C(C)c4ccc(Br)cc4)C(=O)C13)O2 (stereo not given)
  5.1%, -6, -3%, -16%
Nc1ncnc(Oc2cccc(C(F)(F)F)c2)c1[N+](=O)[O-]
  0.9%, 8, 4%, 5%
c1ccc(-c2nn3c(Cn4cnc5ccccc54)nnc3s2)cc1
  0.0%, -5, -22%, -6%
CC(C)c1cccc(O)c(=O)c1
  -0.8%, 0&6, 24%, 5%
c1ccc(CSc2nc3ncccn3n2)cc1
  -0.2%, /, /, 8%
CCCCOC(=O)CCc1c(C)[nH]c(=O)c(C#N)c1C
  -5.3%, -14, -1%, 2%
O=C(CSc1nc2[nH]c(=O)cc(O)c2s1)Nc1ccc(Cl)c(C(F)(F)F)c1
  -3.1%, /, /, -7%
Cc1ccc(NS(=O)(=O)c2cc(C(=O)O)ccc2Cl)c(C)c1
  3.1%, 5, -5%, 1%
CC(C)OC(=O)CSc1nnc(-c2cccnc2)n1N
  -2.5%, -1, -1%, -17%
COc1cc(-c2nn3c(-c4ccccc4)nnc3s2)cc(OC)c1OC
  0.8%, -5, -14%, 11%
CC(C)Cc1cc(C(=O)Nc2c(F)cc(F)cc2Br)no1
  -3.3%, -1, -29%, 12%
CC(C(=O)N1CCN(c2ccccc2F)CC1)c1ccc([N+](=O)[O-])cc1 (stereo not given)
  3.2%, /, 1%, 1%
O=C(OCCN1CCN(C2=NS(=O)(=O)c3ccccc32)CC1)c1ccccc1F
  -1.8%, /, 2%, -1%
CN(C(=O)CSc1nnc(-c2ccncc2)n1-c1ccccc1)C1CCS(=O)(=O)C1 (stereo not given)
  4.9%, 1, -1%, 9%
O=C(Nc1ccc2c(c1)Cc1ccccc1-2)c1cccnc1
  -2.7%, -15, -49%, -11%
S=c1[nH]ccn1-c1cccc(Cl)c1Cl
  -1.7%, 0, 2%, 21%
CC(=O)Nc1ccc(S(=O)(=O)Oc2ccc(Br)cc2C(=S)N2CCOCC2)cc1
  0.5%, /, 0%, 27%
CC(C)NC(=O)CCn1c(=S)oc2ccccc21
  1.8%, 5, -2%, -2%
Cc1ccc(Oc2nsnc2N2CCOCC2)cc1
  -0.1%, 3, -15%, 15%
COc1ccc2c(c1)CCc1c(C(=O)N3CCCC3)noc1-2
  -5.2%, 4, -53%, 32%
CN(C)S(=O)(=O)N1CCN(C(=O)N(c2ccccc2)c2ccccc2)CC1
  0.4%, 0, 0%, -8%
CCNC(=O)COC(=O)c1ccc(S(=O)(=O)N2CCCCCC2)cc1
  ?, 2, -4%, 7%
C/C(=N\NC(=O)CCn1nnc2ccccc21)c1ccco1
  0.9%, -12, -34%, -13%
O=C(NCC1CCCO1)C(c1ccncc1)N(Cc1cccs1)C(=O)CN1C(=O)c2ccccc2S1(=O)=O (stereo not given)
  -1.6%, 0, -27%, 4%
CCn1c(SCC(=O)Nc2ccccc2-c2ccccc2)nnc1-c1ccoc1C
  -0.6%, -10, 0%, -3%
O=C(Nc1ncnc2sc3c(c12)CCCCC3)c1ccc(F)cc1
  -1.2%, 10, -13%, 8%
COCc1c(C(N)=O)nnn1-c1nonc1N
  3.1%, 10, 0%, 1%
Cn1c(SCC(=O)NCc2ccc3c(c2)OCO3)nc2c(c1=O)SCC2
  2.7%, /, -5%, 0%
CCOc1ccc(OC(=O)c2ccc3c(=O)n4c(nc3c2)CCC4)cc1
  3.8%, /, /, -15%
O=C(Cc1ccc(Cl)cc1)Nc1ccccc1Sc1ccccc1
  9.2%, -2, -5%, -6%
O=c1oc2c(CN3CCCCCC3)c(O)ccc2cc1-c1nc2ccccc2[nH]1
  /, -7, -37%, /
COc1cccc(/C=N/N2CCN(c3ccc(Cl)cc3)CC2)c1OC
  4.4%, /, -4%, 1%
COc1ccc(S(=O)(=O)N2CCC(C(=O)NC3CC3)CC2)cc1
  8.1%, /, -1%, -5%
Cc1ccccc1C(=O)NC1CC2CCC(C1)N2Cc1ccccc1 (stereo not given)
  2.0%, -24, -3%, 0%
Cn1nnnc1SCC(=O)Nc1ccc(Br)cc1Br
  -4.7%, /, /, 3%
Cc1cc(C)n(-c2nc3ccccc3c(=O)n2OCCOc2ccccc2)n1
  0.7%, -13, -1%, 16%
CC(=O)c1c(C)[nH]c(C(=O)OCc2cccc(C)c2)c1C
  2.3%, /, -19%, 29%
CCOC(=O)Cc1csc(NC(=O)Nc2cccs2)n1
  0.0%, /, -17%, -3%
CS(=O)(=O)N1CCCC(C(=O)NCCc2ccccc2)C1 (stereo not given)
  3.8%, 6, 1%, 8%
c1coc(CNCCCN2CCOCC2)c1
  -2.8%, -4, -3%, 1%
O=C1N/C(=C/c2cccn2-c2ccccc2)C(=O)N1c1cccc(Cl)c1
  ?, 5, -44%, -8%
Cc1ccc(S(=O)(=O)NCC(=O)OCC(=O)N(C)C2CCS(=O)(=O)C2)cc1 (stereo not given)
  -1.3%, /, /, 0%
Cc1c(Cl)cccc1Nc1nc(NCCO)c2ccccc2n1
  3.1%, /, -2%, 14%
COc1cc(CNC(=O)OCC(C)C)cc(OC)c1OC
  0.8%, -4, -9%, 7%
COCCN(C(=O)CCC(=O)Nc1nccs1)C(C(=O)NCCC(C)C)c1ccc(F)cc1 (stereo not given)
  -5.2%, /, 0%, 4%
Cc1cc(-n2c(SCCC#N)nnc2-c2cccnc2)ccc1Cl
  -2.3%, 1, -5%, -4%
COc1ccc(/C=C(\C#N)C(=O)OCC(=O)NC2CC2)cc1
  -1.5%, -7, -2%, 1%
c1ccc(Cn2c(CN3CCCC3)nc3ccccc32)cc1
  -5.5%, -6, -12%, 8%
Cc1ccc(CNC(=O)c2ccc(N3CCC4(CC3)CC(c3cccc(Br)c3)=NO4)c(NC(=O)c3ccc(Cl)c([N+](=O)[O-])c3)c2)cc1
  0.8%, /, /, 11%
CC(=O)c1c(N2CCN(Cc3ccccc3)CC2)nc(=S)n(-c2ccccc2)c1C
  -0.6%, 5, 0%, -11%

Two entries from above, field by field:
Structure: S=c1[nH]ccn1-c1cccc(Cl)c1Cl
  Rango complex inh: -1.7% | GLA inh pH 4.5: 0 | miR-21 FLuc: 2% | Rango dissoc inh: 21%
Structure: CC(=O)Nc1ccc(S(=O)(=O)Oc2ccc(Br)cc2C(=S)N2CCOCC2)cc1
  Rango complex inh: 0.5% | GLA inh pH 4.5: / | miR-21 FLuc: 0% | Rango dissoc inh: 27%

Exported with values ahead of the structure: seven of the compounds above
Rango complex inh	GLA inh pH 4.5	miR-21 FLuc	Rango dissoc inh	Compound
-5.5%	-6	-12%	8%	c1ccc(Cn2c(CN3CCCC3)nc3ccccc32)cc1
-0.6%	5	0%	-11%	CC(=O)c1c(N2CCN(Cc3ccccc3)CC2)nc(=S)n(-c2ccccc2)c1C
-0.6%	-10	0%	-3%	CCn1c(SCC(=O)Nc2ccccc2-c2ccccc2)nnc1-c1ccoc1C
0.8%	-4	-9%	7%	COc1cc(CNC(=O)OCC(C)C)cc(OC)c1OC
3.8%	/	/	-15%	CCOc1ccc(OC(=O)c2ccc3c(=O)n4c(nc3c2)CCC4)cc1
-2.3%	1	-5%	-4%	Cc1cc(-n2c(SCCC#N)nnc2-c2cccnc2)ccc1Cl
0.7%	-13	-1%	16%	Cc1cc(C)n(-c2nc3ccccc3c(=O)n2OCCOc2ccccc2)n1

(listing goes on)
Fields – Rango complex inh, GLA inh pH 4.5, miR-21 FLuc, Rango dissoc inh
Cc1ccc(S(=O)(=O)C(C#N)c2nc3ccccc3nc2N2CCC(C)CC2)cc1 (stereo not given)
  ?, -5, -10%, ?
O=C(COC(=O)c1ccccc1F)Nc1ccc2c(c1)OCCO2
  ?, /, /, 21%
CSc1ncc2c(n1)-c1cc(C)ccc1SC2
  0.1%, 4, -7%, 24%
Cc1ccc(C(=O)Nc2ccc(C(=O)N/N=C/c3ccc(C)o3)cc2)cc1
  1.8%, /, -11%, 5%
C=CCn1c(SCc2cc(=O)n3ccsc3n2)nnc1C1CCCCC1
  -1.5%, 3, -4%, -10%
CCCCN(C(=O)c1cccc(-n2cnnn2)c1)c1c(N)n(CC(C)C)c(=O)[nH]c1=O
  -4.3%, /, /, -16%
OC1=C(O)c2nc3ccccc3nc21
  ?, 3, -2%, -7%
CC1=C(C(=O)Nc2ccc(Cl)cc2)C2(CCCCC2)C(C(N)=O)C(=S)N1 (stereo not given)
  /, -25, -2%, /
O=C(NNS(=O)(=O)c1ccccc1[N+](=O)[O-])c1cccc(Cl)c1
  -2.7%, 3, -7%, -2%
Cc1nn2c(C(F)(F)F)c3c(nc2c1-c1ccccc1)CCC3
  0.8%, 4, 4%, 1%
OCCC1CN(Cc2ccc(Oc3ncccn3)cc2)CCN1C1CCCC1 (stereo not given)
  1.2%, 3, -2%, -3%
O=C(O)CCCC(=O)Nc1nc(-c2ccc(F)cc2)cs1
  1.1%, -3, -1%, 2%
CCc1nnc(NC(=O)C(C)Sc2ccccc2)s1 (stereo not given)
  -3.9%, 0, -10%, 9%
Cc1ccc(CCNC(=O)C2CCN(S(=O)(=O)N3CCOCC3)CC2)cc1
  0.3%, /, -1%, 19%
Cn1c(=O)oc2cc(S(=O)(=O)NCc3ccccc3)ccc21
  -2.3%, -6, -5%, 18%
Cc1cc(=O)n(C)c(=O)n1CCCCCCOc1cccc([N+](=O)[O-])c1
  -0.5%, 8, -4%, 4%
O=C1CN(c2nc(-c3ccccc3)c3cc(Cl)ccc3n2)c2ccccc2N1
  -2.5%, 8, -10%, 0%
C=CCNc1nc(C(=O)OCC(=O)Nc2ccc(S(N)(=O)=O)cc2)cs1
  0.0%, /, /, 1%
COC(=O)c1cccc(NC(=O)Cn2nnc3ccccc32)c1
  ?, -12, -16%, -8%
CSc1nnc2c(n1)OC=Nc1ccc(Br)cc1-2
  4.9%, -3, -2%, -6%
CC(C)N(C(=O)[C@H]1C[C@H](CC(=O)NCc2ccco2)C(=O)N2CCc3c([nH]c4cc(CCC(=O)N(C)C)ccc34)[C@]12C)C(C)C
  -0.6%, /, /, 6%
Cc1ccc(NC(=O)n2ccc(-c3ccc(-n4ccnc4)cc3)n2)cc1
  -3.5%, -5, -55%, 0%
CCOC(=O)c1csc(-c2snnc2C)n1
  0.2%, -2, -25%, 11%
